Vif TR-FRET – HIV-1 Vif–A3G interaction blockers – biochemical, TR-FRET, GST-Vif 1-94, biotin-A3G peptide, dose response retest, primary screen (AID 1117319); TR-FRET GST-Vif / biotin-A3G peptide binding; higher % means a stronger effect; test concentration not given here; strong numbers were not always called active; inhibition, %; hits with a dose series show IC50 in µM; actives 0.57% (n = 260,000);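 active means above the screen mean plus three standard deviations and confirmed in dose response; inconclusive means results disagree or hit not tested in dose response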;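 further: Vif residues 1-94 fused to GST binding biotinylated APOBEC3G peptide 110-148; 0% = full assay without inhibitor and 100% = GST in place of GST-Vif; retest series ran down from 100 µM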
B2AR ag – agonists of human beta-2 adrenergic receptor inducing internalization; actives 0.43% (n = 340,000); Am2.2-beta2AR cells, FAP receptor internalization, flow cytometry; reference of the scale not given here; AID 504454; response, % (test concentration not listed);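 active means response above a set limit, near 3 SD of response in nonfluorescent compounds, cut at about 42% in these data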;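 further: stock transfer was 100 nL into about 11 µL; a reference agonist was the positive control; negative values mostly stem from fluorescent compounds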
Target sequence (P07550 whole entry, looked up): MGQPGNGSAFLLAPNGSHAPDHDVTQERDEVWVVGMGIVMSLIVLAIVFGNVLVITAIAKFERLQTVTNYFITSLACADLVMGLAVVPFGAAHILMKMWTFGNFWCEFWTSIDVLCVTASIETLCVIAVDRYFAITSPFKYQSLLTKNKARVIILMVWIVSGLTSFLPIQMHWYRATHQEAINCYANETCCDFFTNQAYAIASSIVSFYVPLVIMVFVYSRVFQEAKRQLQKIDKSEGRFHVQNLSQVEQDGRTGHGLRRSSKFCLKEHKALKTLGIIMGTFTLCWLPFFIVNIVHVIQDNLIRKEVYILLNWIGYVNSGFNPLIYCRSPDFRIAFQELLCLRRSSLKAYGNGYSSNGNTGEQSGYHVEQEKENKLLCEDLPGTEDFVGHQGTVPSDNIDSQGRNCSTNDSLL
RanGTP-Impb inh – disruptors of Ran-importin-beta complex formation – biochemical, FRET, CFP-Ran, YFP-importin-beta, homogeneous, primary screen; cell-free CFP-Ran/YFP-importin-beta FRET ratio; inhibition, % (concentration not given with the values); actives 1.1% (n = 300,000); AID 2216;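 active means most replicates above 15%; inconclusive means exactly half above 15%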;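 further: 0% = DMSO wells and 100% = Ran loaded with GDP instead of GTP; wells of about 40 µL received 100 nL stock; the first replicate is given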
ALR inh – human ALR oxidase inhibition via reduced H2O2 | P55789 | purified ALR, DTT oxidation, H2O2 HRP-luminol luminescence | inhibition, % (test concentration not listed) | actives 3.8% (n = 290,000) | AID 485317;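 active means mean and each replicate at 75% or more; inconclusive means only one of the two met; inactive means neither met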;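 further: stock transfer was 7.5 nL into about 7.5 µL; 0% = neutral wells and 100% = wells with inactivated enzyme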
Target sequence (P55789 whole entry, looked up): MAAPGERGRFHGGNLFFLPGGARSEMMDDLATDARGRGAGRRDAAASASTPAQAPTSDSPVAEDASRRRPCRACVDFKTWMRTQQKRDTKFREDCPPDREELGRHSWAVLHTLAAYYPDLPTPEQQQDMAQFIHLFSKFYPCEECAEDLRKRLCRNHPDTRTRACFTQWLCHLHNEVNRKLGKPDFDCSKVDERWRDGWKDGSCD
HNF4A DNA FP – change in binding of human HNF4 alpha to DNA | HNF4a-FITC DNA binding, fluorescence polarization, 1 h | actives 0.3% (n = 360,000) | P41235 | activity change, % at 10 µM; in the data active means activity change above about 30%, passing the limit was not always enough;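 further: controls were the assay level and a saturating level of protein; the project sought stronger binding though the title names inhibitors; some compounds called inactive have numbers as strong as hits; positive values seem to mean higher polarization but the record does not say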
Target sequence (P41235 whole entry, looked up): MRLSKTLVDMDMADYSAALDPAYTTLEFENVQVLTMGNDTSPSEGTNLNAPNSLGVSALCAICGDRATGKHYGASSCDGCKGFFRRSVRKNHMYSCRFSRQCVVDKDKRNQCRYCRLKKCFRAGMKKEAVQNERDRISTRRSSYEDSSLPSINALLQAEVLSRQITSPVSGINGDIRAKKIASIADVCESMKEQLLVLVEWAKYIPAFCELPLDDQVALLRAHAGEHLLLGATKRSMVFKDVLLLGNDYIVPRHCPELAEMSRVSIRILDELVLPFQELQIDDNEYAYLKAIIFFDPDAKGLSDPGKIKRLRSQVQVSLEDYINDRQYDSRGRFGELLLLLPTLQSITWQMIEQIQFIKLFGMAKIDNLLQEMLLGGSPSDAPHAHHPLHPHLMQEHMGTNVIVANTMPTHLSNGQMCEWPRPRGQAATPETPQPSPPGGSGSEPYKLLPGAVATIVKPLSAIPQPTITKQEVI
LANA-H2A inh – blocks KSHV LANA binding to histone H2A/H2B; actives 0.6% (n = 320,000); AID 2629; inhibition, % (no concentration beside the values); Q9QR71; cell-free LANA-H2A/H2B peptide, fluorescence polarization; in the data active means inhibition mostly above about 10%, no sharp cut-off; inactive means mostly below about 6.7%;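 further: stock transfer was 7.5 nL into about 10 µL; 0% = median of vehicle wells and 100% = median of positive control wells; one replicate is shown; the record names a cut of 25% in any replicate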
Calb FLC – C. albicans growth modulation with fluconazole. C. albicans CaCi-2 (fluconazole-resistant clinical isolate) + fluconazole, Alamar Blue growth, 48 h. growth inhibition, % (no concentration beside the values). actives 0.57% (n = 300,000);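 active means most replicates above 75%; inconclusive means exactly half above 75%; inactive means most below 75%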;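 further: all wells also contain fluconazole at 8 µg/ml as a sub-toxic cotreatment; 0% = median of DMSO wells and 100% = median of geldanamycin control wells; wells of about 8 µL received 7.5 nL stock; the first replicate is given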
* hit, by the source's call; ? = inconclusive; . = not tested or not shown; & = joins results of further samples.

SMILES	Vif TR-FRET	B2AR ag	RanGTP-Impb inh	ALR inh	HNF4A DNA FP	LANA-H2A inh	Calb FLC
O=C1NC(=S)N(C(=O)c2ccc(F)cc2)/C1=C/c1cccnc1	18%	4	9.8	.	3.2	-1.7	7
Cc1nnc(SCC(=O)NC23CC4CC(CC(C4)C2)C3)s1	4%	-4	-0.6	.	-1.4	-1.5	-27
COc1ccc(CC(=O)Nc2ccc(S(=O)(=O)N3CCCC3)cc2)cc1OC	-4%	1	.	-3	1.0	1.6	.
COc1ccccc1NS(=O)(=O)c1cccc(C(=O)N2CCCC2)c1	.	4	.	3	-1.9	-0.9	.
CC(=O)Nc1sc(C)c(C)c1CN1CCN(Cc2ccccc2)CC1	12%	5	-2.6	66	-2.1	3.0	-5
Cc1ccc(C2CC(c3ccc(Br)cc3)=NN2C(=O)CSC2=NN3CCCC(=O)N=C3S2)cc1 (centres undefined)	3%	-12	1.9	-3	-3.1	-0.7	-4
O=C(NCCCl)NNC(=O)c1cc2ccccc2cc1O	?	8	-4.7	46	-1.9	14	29
O=C(CCn1ccnc1)Nc1nc2ccccc2[nH]1	-12%	-6	-2.1	0	3.8	-2.7	-3
CCOC(=O)c1cc(C#N)c(SC)nc1-c1ccccc1	5%	-11	-0.3	-2	-1.3	-4.6	3
Cn1ncc(Cl)c1C(=O)Nc1sc2c(c1C(N)=O)CCC2	-5%	31	1.3	0	14	2.2	0
NC(=O)NNc1ncc(C(F)(F)F)cc1Cl	5%	-4	6.7	?	-1.5	0.0	-2
Cc1sc2nc(Cc3ccccc3)[nH]c(=O)c2c1-c1ccccc1	-4%	-11	2.4	-3	2.9	-4.2	?
CCc1cccc(NC(=O)C2CCCN(S(=O)(=O)c3cccs3)C2)c1 (centres undefined)	.	12	5.1	11	-1.0	-0.7	19
Cc1ccc(C)c2sc(N3CCN(C(=O)c4ccc([N+](=O)[O-])o4)CC3)nc12	3%	7	-4.3	.	-6.5	.	-10
O=C(COC(=O)c1cccc(O)c1)NC(=O)Cc1ccccc1	-6%	0	-2.4	2	-3.8	-6.7	7
CC(C)NS(=O)(=O)c1ccc(NC(=O)C2CCCCC2)cc1	-2%	8	-3.2	-1	-4.8	-1.7	-2
COc1ccc(C(C)N2CC34C=CC(O3)C(C(=O)O)C4C2=O)cc1 (centres undefined)	1%	-6	1.6	2	-4.6	-4.1	-5
COc1ccc(CNc2nc(SC)n[nH]2)cc1OC	-1%	5	2.1	2	3.5	0.4	-6
CCCNC(=O)c1ccc2c(c1)nc(C)n2-c1cccc(Cl)c1	-5%	-11	1.9	2	0.8	0.0	4
Cc1ccc(C)n1-c1nnc(N2CCC(C(=O)NCCCN3CCN(C)CC3)CC2)s1	7%	5	3.0	-2	4.8	-0.5	2
Cc1cc(-c2ccccc2)nc(N(C)NC(=O)C2CC2)c1S(C)(=O)=O	-5%	-8	-0.5	-6	-1.0	-0.7	-1
Brc1ccccc1-c1nnc(CSc2nncn2-c2ccccc2)o1	2%	-2	1.5	-1	4.4	-0.5	?
NS(=O)(=O)c1ccc(NS(=O)(=O)c2ccc(NC(=S)Nc3ccccc3)cc2)cc1	.	26	-3.9	50	-2.5	2.9	-9
COc1ccc(NC(=O)CN(C)C(=O)CSc2ccc3c(c2)OCCO3)cc1	-4%	0	0.3	98*	-2.9	0.9	9
CC1CN(C(=O)c2cc3ccccc3cc2O)CC(C)O1 (centres undefined)	3%	1	-0.6	-10	-3.3	2.3	0
COc1cccc(OCC(O)CN2CCC(CN3C(=O)c4cccc5cccc(c45)C3=O)CC2)c1 (centres undefined)	4%	4	1.6	-3	-2.6	-5.3	2
O=C(O)CSc1nnc(-c2cccc(S(=O)(=O)N3CCCCC3)c2)o1	-6%	1	0.1	6	-3.1	-4.5	-2
COc1ccc(S(=O)(=O)N(Cc2ccc(OC)c(OC)c2)Cc2ccco2)cc1	1%	-11	-3.8	2	-2.2	5.2	8
COc1cc(NC(=O)N[C@@H](CCSC)C(=O)O)cc(OC)c1	?	-1	-0.8	-6	-1.0	-3.2	-3
O=C(NCCCN1CCOCC1)c1cccnc1	.	5	-2.3	-1	-2.9	2.2	2
CC1(C)CC(=O)C2=C(C1)N(Cc1ccccc1)C(=O)C2(O)C(F)(F)F (centres undefined)	1%	4	1.4	-4	-3.1	2.3	1
NC(=O)COC(=O)c1cc(-c2cccs2)nn1-c1ccccc1	1%	-9	-1.5	.	-3.5	-4.2	-4
CCOC(=O)N1CCN(c2nc(C)c3c(n2)CCCC3=O)CC1	?	3	0.7	-3	-0.4	-3.4	-11
COc1ccc(Nc2n[nH]c(C)c2[N+](=O)[O-])cc1	-6%	1	.	0	2.4	-5.7	-5
CCOC(=O)N1CCN(S(=O)(=O)c2ccc(OC)c(Cl)c2)CC1	2%	-10	1.8	0	-1.9	-3.9	1
Cc1ccc(C(=O)NC(C)c2ccncc2)o1 (centres undefined)	.	2	0.5	1	4.9	-0.4	4
NC(=O)C1CCCN(C(=O)NC2CCCCC2)C1 (centres undefined)	7%	-8	0.4	-2	-2.4	-1.1	1
Cc1ccccc1C(=O)NC(=S)Nc1ccc(S(=O)(=O)N2CCN(C)CC2)cc1	-1%	5	2.1	16	-0.1	0.3	2
CCOc1ccc(NS(=O)(=O)c2ccc(C(=O)N3CCC3)cc2)cc1	0%	-19	1.8	.	-1.0	4.3	3
COc1ccc(CCC(=O)NCc2ccccc2OC)cc1	-4%	-3	0.9	.	4.7	-1.7	-4

5 compounds out of the list above, arranged by the value under HNF4A DNA FP, falling.
SMILES	HNF4A DNA FP
COc1ccc(CCC(=O)NCc2ccccc2OC)cc1	4.7
COc1ccc(Nc2n[nH]c(C)c2[N+](=O)[O-])cc1	2.4
CCOC(=O)N1CCN(S(=O)(=O)c2ccc(OC)c(Cl)c2)CC1	-1.9
NS(=O)(=O)c1ccc(NS(=O)(=O)c2ccc(NC(=S)Nc3ccccc3)cc2)cc1	-2.5
NC(=O)COC(=O)c1cc(-c2cccs2)nn1-c1ccccc1	-3.5

(more compounds)
SMILES	Vif TR-FRET	B2AR ag	RanGTP-Impb inh	ALR inh	HNF4A DNA FP	LANA-H2A inh	Calb FLC
Cn1ccnc1COc1ccc(/C=N/O)cc1	.	14	-1.3	.	1.4	-1.5	-8
c1ccc(CSC2=NCCS2)cc1	-7%	-8	?	2	-3.1	2.3	-16
CCN(Cc1ccncc1)Cc1nc(CC2CC2)no1	7%	-3	-0.9	-3	5.0	0.1	8
CCC(CC)NC(=O)C1CCN(c2ccc(S(=O)(=O)N3CCOCC3)cc2[N+](=O)[O-])CC1	-10%	1	.	1	1.9	-3.8	.
Clc1ccc(-c2cnnc(-c3ccccn3)n2)cc1	.	-30	.	3	0.7	5.8	.
COc1ccccc1CCNC(=O)c1csc2c1CCCC2	-4%	10	-1.4	-18	-2.6	2.9	?
CCOC(=O)c1ccc(NC(=O)CC2C(=O)N(c3ccc(F)cc3)C(=O)N2CCCOC)cc1 (centres undefined)	24%&4%	-1	2.6	-1	-0.1	1.0	2
CCOC(=O)c1ccc(NC(=O)CCSCCc2ccccn2)cc1	7%	-2	-0.4	-7	2.4	6.0	-2
Cc1nn(-c2ccccc2)c(C)c1/C=N/NC(=O)c1cc(-c2cccc3ccccc23)n[nH]1	?	-2	6.6	-7	4.1	-3.0	29
CC(C)NC(=O)NC(=O)COC(=O)CCOc1ccccc1	3%	-7	0.3	13	-2.4	-2.5	-4
Cc1cc(C)c2sc(NC(=O)C3=COCCO3)nc2c1	2%	-3	2.7	-1	2.8	-5.1	-1
COc1cc(NS(=O)(=O)c2ccc(NC(=O)c3ccc(S(=O)(=O)N4CCCCC4)cc3)cc2)ncn1	.	3	-1.8	-2	-0.9	1.0	-10
Cc1ccc(CC(NC(=O)C2CCCCC2)C(=O)O)cc1 (centres undefined)	-6%	-4	.	.	-0.2	.	.
O=C1NC(=Nc2ccccc2Cl)S/C1=C\c1cccc([N+](=O)[O-])c1	?	13	-0.3	14	2.4	0.3	48
CNC(=O)N(c1ccccc1)c1ccccc1	-4%	4	0.0	-15	3.6	-2.6	4
C=C1CC[C@@H]2[C@](C)(CO)[C@H](O)CC[C@@]2(C)[C@@H]1/C=C/C1=CCOC1=O	4%	-7	-0.9	-5	0.3	-0.7	-9
CC(NC(=O)c1cc(S(=O)(=O)N(C)C)ccc1Cl)C1CC2CCC1C2 (centres undefined)	.	-11	-2.6	1	-3.0	-15	1
Cc1ccccc1C(=O)Nc1c2c(nn1C(C)(C)C)CS(=O)(=O)C2	.	3	6.8	-23	0.3	5.9	0
COc1ccccc1NC(=O)C(=O)NCC1COc2ccccc2O1 (centres undefined)	4%	-7	-4.4	-8	1.9	4.2	3
CN1CCN(C(=S)c2cn(Cc3ccccc3F)c3ccccc23)CC1	5%	1	-0.2	-13	3.8	-2.1	-8

As a short view, part of the list above:
SMILES	Vif TR-FRET	B2AR ag	RanGTP-Impb inh	ALR inh	HNF4A DNA FP	LANA-H2A inh	Calb FLC
CCOC(=O)c1ccc(NC(=O)CC2C(=O)N(c3ccc(F)cc3)C(=O)N2CCCOC)cc1 (centres undefined)	24%&4%	-1	2.6	-1	-0.1	1.0	2
CCOC(=O)c1ccc(NC(=O)CCSCCc2ccccn2)cc1	7%	-2	-0.4	-7	2.4	6.0	-2

(list continues)
SMILES	Vif TR-FRET	B2AR ag	RanGTP-Impb inh	ALR inh	HNF4A DNA FP	LANA-H2A inh	Calb FLC
Cc1ccsc1C1C2=C(CCCC2=O)Nc2ncnn21 (centres undefined)	5%	2	.	-1	1.1	1.5	29
CCC(=O)Nc1ccc2nc(C3CC3)n(Cc3ccc(C(C)(C)C)cc3)c(=O)c2c1	-20%	-1	1.4	.	1.0	2.9	6
CCOC(=O)Nc1ccc(S(=O)(=O)N2CCC(C)CC2)cc1	-7%	-6	-0.1	.	-2.3	-3.5	-15
Cc1ccc(NC(=O)CCCNC(=O)c2ccc(Cl)cc2)cc1S(=O)(=O)N1CCCCC1	-7%	6	.	.	-1.9	.	.
Cc1ccc(OCC(=O)Nc2ccccc2F)cc1C	.	2	-1.9	.	-1.0	.	1
CN1C(C(=O)NCc2cccc(C(F)(F)F)c2)CC2Cn3c(nc4cc(Cl)c(Cl)cc43)C21 (centres undefined)	.	6	-3.2	.	8.4	-9.2	4
O=C(Nc1nc(-c2ccccc2)cs1)C1CCCN(S(=O)(=O)c2cccc([N+](=O)[O-])c2)C1 (centres undefined)	6%	2	0.8	-6	1.3	1.2	-19
COc1cccc(CN2CCC(n3nccc3NC(=O)CCCc3ccccc3)CC2)c1O	.	-12	-1.5	16	1.0	1.1	-3
CC1CC(C)CN(S(=O)(=O)c2ccc3c(c2)NC(=O)C(C)C(=O)N3)C1 (centres undefined)	.	5	-1.0	-4	1.3	-0.6	-6
O=C1C=CC(c2ccccc2)(c2ccccc2)CC1	-2%	8	.	.	-3.8	.	.
COC(=O)[C@@]12CCCCN1[C@H](c1ccc(-c3ccc(OC)cc3)cc1)[C@H]1C(=O)N(C)C(=O)[C@H]12	.	4	0.7	-1	-2.8	-1.2	19
NC(=O)COC(=O)CSc1cccc2cccc(Cl)c12	-4%	9	-2.7	-28	2.1	-2.4	33
Cc1cc(F)ccc1S(=O)(=O)N1CCCOC1CNC(=O)C(=O)NCCN1CCOCC1 (centres undefined)	3%	3	2.5	5	2.4	4.9	-1
CCS(=O)(=O)Nc1cccc(C2=NN(S(=O)(=O)c3ccccc3)C(c3ccco3)C2)c1 (centres undefined)	-1%	8	-0.2	-6	0.9	-2.6	7
Cc1oc2ccc(Br)cc2c(=O)c1-c1nn[nH]n1	-4%	11	-2.7	-1	-1.2	-2.9	12
CCCN1C(=O)/C(=C/c2ccc(C)o2)SC1=Nc1ccc(OCC)cc1	?	-1	-0.1	.	1.9	-4.0	-3
O=C(O)C1CCCCC1C(=O)Nc1ccc(F)c(F)c1 (centres undefined)	-8%	8	1.5	.	0.0	-0.4	-4

High-throughput results deposited in PubChem BioAssay by several laboratories.
